BJeLR lethal: MLPCN primary cell-based screen for lethality selective to Ras in HRASV12 cells. BJeLR (HRASV12) viability, CellTiter-Glo ATP luminescence, 48 h; reference of the scale not given here. inhibition, % (test concentration not listed). 300,000 compounds, 0.17% hits. AID 1554, 2009;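 active = replicate mean above 50%; inconclusive = above 50% but judged a plate artefact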;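 also: 50 nL library stock added to about 25 µL; numbers are from one replicate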
Bead autofluor: compound fluorescence in toxin protease inhibitor counterscreen | compound autofluorescence counterscreen, microsphere flow cytometry; stronger effect = higher value | 360,000 compounds, 3.1% hits | fluorescence intensity (test concentration not listed);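 active = at least 3 SD above the mean of all compounds, about 16000 in these data; inconclusive = too few beads counted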;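 also: 100 nL of 1 mM stock went into each well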
ugtP null kill: growth inhibition of ugtP-null S. aureus, primary screen, RN4220 ugtP deletion, OD600. 16 h; some inactives read as strong as hits. growth inhibition, % (concentration not given with the values). 330,000 compounds, 0.54% hits;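 active = z-score under -3 and OD600 up to 0.15 on both plates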;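 also: plate controls were untreated wells for no effect and antibiotic for full effect; wells of about 80 µL received 100 nL stock; the first replicate is given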
PrP 5UTR inh: inhibition of PrP 5' UTR reporter expression; inhibition, % (no concentration beside the values); cell-based PrP 5' UTR mRNA reporter, plate reader; 340,000 compounds, 0.35% hits;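 active = every replicate at 50% or more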;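 also: 0 = median of the neutral control wells; tested in H4 reporter cells; numbers are from one replicate; inactives centre near -14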
Sa RN4220 lethal: growth inhibition of S. aureus RN4220, primary screen, OD600; 16 h; AID 1259311, 2017; inhibition, % (test concentration not listed); 330,000 compounds, 0.33% hits;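 active = z-score of -3 or lower and OD600 up to 0.18 on both plates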;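 also: plate controls were untreated cells for no effect and reference antibiotic for full effect; stock transfer was 100 nL into about 80 µL; one replicate is shown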
Mtb hypoxia inh: PubChem AID 1159583 | M. tuberculosis hypoxia-regulated fluorescent reporter, fluorescence | fluorescence inhibition, % (concentration not given with the values) | 300,000 compounds, 0.1% hits;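 active = 35 to 45% if threefold the growth effect, above 45% if 1.5-fold the growth effect; inactive = the rest, general growth blockers included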;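 also: wells of about 50 µL received 100 nL stock; 0% = vehicle wells and 100% = reference inhibitor wells; whole bacteria with a GFP reporter of the hypoxia response; strong numbers were not always called active; many hits fall short of the cut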
Mtb hypoxia inh growth: recorded beside Mtb hypoxia inh, whose call it bears; growth inhibition, %; measured here: M. tuberculosis growth (absorbance);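 0% = vehicle and 100% = reference antibiotic; read after six days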
* marks the source's active call; other numbers are inactive results; ? = inconclusive; . = not tested or not shown. This is a random part of the collection. Share with any hit: about 4.1%.

SMILES	BJeLR lethal	Bead autofluor	ugtP null kill	PrP 5UTR inh	Sa RN4220 lethal	Mtb hypoxia inh	Mtb hypoxia inh growth
Cc1cc(=O)[nH]c(NN=CC2=C(N3CCOCC3)/C(=C\c3ccc(Cl)cc3)CC2)n1	.	.	5	.	5.8	-3	-5
C=CCNC(=S)NNC(=O)c1cccn(Cc2ccc(Cl)c(Cl)c2)c1=O	5	5648	-4	13	-1.9	-2	6
COc1cc(O)sc1C=Nc1ccc(Cl)cc1	-8	2473	-10	-53	3.9	3	-1
O=C(NC1CCN(S(=O)(=O)c2cccc(F)c2)CC1)c1cccc(F)c1	5	3599	7	-2	3.3	1	2
COc1ccc(C(=O)NC(C)c2ccccc2)cc1Br (stereo not given)	0	4023	-1	-6	4.9	13	3
COc1cc(CC(=O)NCc2ccccn2)cc(OC)c1OC	3	5011	1	-15	-0.4	.	.
CN(Cc1ccccc1)C(=O)CNC(=O)Cn1cnc2ccccc2c1=O	2	4813	6	-14	5.2	.	.
CC(OC(=O)CCCCCN=C1NS(=O)(=O)c2ccccc21)C(=O)Nc1cc(Cl)cc(Cl)c1 (stereo not given)	-5	2404	-35	-18	-4.8	-3	2
Cc1ccc(Cn2c(C(C)Nc3nc(-c4ccc(F)cc4)cs3)nc3cc(Cl)c(Cl)cc32)cc1 (stereo not given)	-4	3119	-9	-20	-7.7	-2	-5
CCN(CC)CCNC(=O)/C(=C/c1cn(CC)c2ccccc12)NC(=O)c1cc(OC)c(OC)c(OC)c1	3	4451	1	3	2.7	5	3
COc1ccc(N2CCN(CCNC(=O)CCN3C(=O)COc4ccccc43)CC2)cc1	0	6048	2	-49	2.4	0	2
O=C(NCc1ccc2c(c1)OCO2)NC12CC3CC(CC(C3)C1)C2	23	4632	-11	-6	2.8	-9	0
COc1ccc2nc(NC(=O)c3cccs3)sc2c1	9	3404	-22	.	1.6	0	8
CCOC(=O)C1CCN(C(=O)c2ccc(Cl)c(Cl)c2)CC1	.	2448	-7	-21	-1.6	.	.
O=C1CN(C(=O)COC(=O)c2cccs2)c2ccccc2N1	.	4054	0	-1	3.1	-4	0
COCCNC(=O)/C(C#N)=C/c1cc(C(C)C)c(OC)cc1C	2	3324	1	-1	5.7	6	8
COc1ccccc1NC(=O)CS(=O)(=O)c1cn(CC(=O)N2CCCC2)c2ccccc12	3	5865	-1	-1	-0.2	-9	11
CCc1c(C)sc(NC(=O)/C=C/c2ccc3c(c2)OCO3)c1C(=O)OC	2	2519	4	-32	-3.7	6	1
COc1ccccc1-c1nnc(SCC(=O)N2CCCCC2)o1	-4	4186	10	-24	4.8	16	3
CC(=NO)c1sc(-c2ccccc2)nc1C	.	.	3	.	13	-1	11
COc1ccc([N+](=O)[O-])cc1N(CC(=O)N1CCOCC1)S(C)(=O)=O	2	5635	9	-32	6.6	-1	-6
O=C(O)COc1ccccc1C(Nc1ccccn1)c1cc(Cl)c2cccnc2c1O (stereo not given)	-11	2198	-5	-9	18	-3	-9
COc1ccc(/C=N/Nc2nc3ccccc3c(=O)n2-c2ccccc2)cc1OC	-6	6852	.	-65	.	.	.
O=C(CC(Nc1ccccc1)c1ccc(F)cc1)c1ccccc1 (stereo not given)	6	2254	16	-40	-11	.	.
O=C(COC(=O)C1CC(=O)N(Cc2ccccc2)C1)Nc1ccc2c(c1)OCO2 (stereo not given)	-5	9321	5	-26	1.6	16	8
COc1cc(/C=N/N2CCN(Cc3ccc(C)cc3)CC2)cc(OC)c1O	7	3357	.	-39	.	.	.
O=C(NCc1ccc(Cl)cc1)c1ccc(-c2ccccc2C(F)(F)F)o1	-9	4072	-24	-19	-2.1	-8	-5
COc1cccc(CN(C)C(=O)CCN=C2NS(=O)(=O)c3ccccc32)c1OC	.	3824	4	-4	9.7	9	3
Cc1cc(Cl)c(OCCCN(C)C)c(Br)c1	10	2514	6	-15	12	10	0
O=C(CCNS(=O)(=O)c1ccccc1)N1CCN(C(c2ccccc2)c2ccccc2)CC1	2	6001	.	-21	.	.	.
COc1ccc(NC(=O)C(=O)NNC(=O)c2cccs2)cc1	-2	2008	-1	-46	2.2	-15	7
COc1cccc(CNC(=O)CN2C(=O)COc3ccc(S(=O)(=O)N4CCC(C)CC4)cc32)c1	12	5896	3	-7	1.2	4	-6
CC(C)(CNc1ccc(C(F)(F)F)cc1[N+](=O)[O-])N1CCOCC1	-5	5802	3	-29	-2.1	20	6
Cc1ccc(S(=O)(=O)N(C)C)cc1NC(=O)CN1C(=O)NC2(CCCCCCC2)C1=O	1	4508	-1	-6	2.8	-4	-9
Cc1[nH]n(-c2cccc(Cl)c2)c(=O)c1C=NCc1ccco1	-1	3431	5	-101	1.7	3	5
COc1ccc(CNC(=O)Cn2cccc2C(=O)c2ccccc2C)cc1	2	4260	9	-23	5.2	2	-5
CCc1ccc(C(=O)NN=C(C)c2ccncc2)s1	.	.	57	.	5.2	3	-4
COc1ccc(CNC(=O)CN2C(=O)NC(C)(c3cccc4ccccc34)C2=O)cc1OC (stereo not given)	-4	5254	1	-36	2.4	13	1
COc1cc(OC)c(C(=O)OCC(=O)NC2CCCC2)cc1OC	6	3563	22	-5	5.7	8	14
CC(Cc1ccccc1)NC(=O)c1ccc([N+](=O)[O-])cc1 (stereo not given)	-1	2099	5	-58	1.1	7	30

An excerpt of these results, with two lines to a compound.
Each structure is followed by: BJeLR lethal, Bead autofluor, ugtP null kill, PrP 5UTR inh, Sa RN4220 lethal, Mtb hypoxia inh, Mtb hypoxia inh growth
COc1cccc(CN(C)C(=O)CCN=C2NS(=O)(=O)c3ccccc32)c1OC
 : ., 3824, 4, -4, 9.7, 9, 3
Cc1cc(Cl)c(OCCCN(C)C)c(Br)c1
 : 10, 2514, 6, -15, 12, 10, 0
O=C(CCNS(=O)(=O)c1ccccc1)N1CCN(C(c2ccccc2)c2ccccc2)CC1
 : 2, 6001, ., -21, ., ., .
COc1ccc(NC(=O)C(=O)NNC(=O)c2cccs2)cc1
 : -2, 2008, -1, -46, 2.2, -15, 7
COc1cccc(CNC(=O)CN2C(=O)COc3ccc(S(=O)(=O)N4CCC(C)CC4)cc32)c1
 : 12, 5896, 3, -7, 1.2, 4, -6

Next part.
SMILES	BJeLR lethal	Bead autofluor	ugtP null kill	PrP 5UTR inh	Sa RN4220 lethal	Mtb hypoxia inh	Mtb hypoxia inh growth
Cc1ccc(OCC(=O)Nc2ccccc2F)cc1	-3	3774	-2	-59	2.5	15	8
CCC1N=C(SC)NC(C)=C1C(=O)c1ccccc1 (stereo not given)	.	4771	20	1	8.5	6	1
COc1ccc2nc(NC(=O)CCc3cc(OC)c(OC)c(OC)c3)sc2c1	-3	4503	8	-55	-1.8	6	9
CCC1SC(N)=NC1=O (stereo not given)	7	2777	-4	-19	-13	2	10
CC1(C)CC(=O)C(C2C3=C(CC(C)(C)CC3=O)Oc3ccccc32)=C(O)C1 (stereo not given)	-1	2857	14	-26	18	-9	-9
CCN(c1ccccc1)S(=O)(=O)c1ccc(Cl)c(NC(=O)CSc2n[nH]c(N)n2)c1	-4	2094	1	-20	5.1	3	4
CC1CN(C(=S)Nc2ccc(Cl)cc2)CC(C)O1 (stereo not given)	0	3538	6	-16	5.6	-5	7
O=C(Cn1cnc2c(NCc3ccccc3)ncnc21)N1CCN(c2ccccn2)CC1	.	3874	-4	-24	2.3	-2	-1
Cc1nn(-c2cccc(C(F)(F)F)c2)c(Cl)c1/C=N/Nc1cccc(C(=O)O)c1	-4	1852	.	19	.	.	.
C=CCNC(=O)c1ccc2c3n(nc2c1)-c1ccccc1CO3	19	3863	-1	-12	-0.6	-7	6
O=C(NCCN1CCOCC1)Nc1ccccc1	.	5001	5	-15	3.1	.	.
OCCCNc1nc(-c2ccccc2)c2cc(Br)ccc2n1	-3	3911	-1	-4	-0.4	7	3
COc1ccccc1CNC(=O)CSc1ccccc1	1	3986	3	-54	4.9	6	8
CN1CCN(C(=O)c2ccc(-c3ccccc3)cc2)CC1	0	3298	15	-25	1.8	10	13
Nn1c(Nc2ccccc2)nc2sc3c(c2c1=O)CCCC3	-1	4461	10	-15	7.5	18	3
CNC(=O)Nc1ccc(Cl)cc1	3	3116	-3	-5	1.8	-2	-3
CC(=O)c1c(NCCc2ccccc2)cc(C)oc1=O	4	8120	-6	-4	4.7	4	6
CC1CN(C(=O)CSc2ncnc3sccc23)CC(C)O1 (stereo not given)	-3	8114	10	3	2.5	2	7
COC(=O)Nc1ccc(N2CCOCC2)c(S(=O)(=O)N2CCOCC2)c1	9	4665	5	0	-1.3	3	1
Cc1cc(C)n2nc(SCc3nnc(SCCCCl)o3)nc2n1	12	7967	-2	-10	9.6	14	8
COc1ccc(C(=O)N/N=C/c2cn[nH]c2-c2ccc(OC)cc2OC)cc1	1	9367	.	-10	.	.	.
CC1CC(C)(C)OC(c2ccc(C(C)C)cc2)O1 (stereo not given)	.	3443	7	-21	8.6	8	12
CCCc1cc(=O)c2ccc(OC/C(C)=N/O)cc2o1	-4	4544	.	-2	.	.	.
CCN(CC)CCCn1c(=S)[nH]c2ccc(Cl)cc2c1=O	1	10410	-9	-34	7.5	8	5
Nc1ccc2oc3ncccc3c(=O)c2c1	-1	11043	12	-14	2.1	4	-1
COc1cc(Cc2nc3ccc(S(=O)(=O)N4CCOCC4)cc3[nH]2)cc(OC)c1OC	-1	4548	-2	-43	2.7	.	.
CCOc1ccc(OCCC(=O)OCC(=O)Nc2cc(OCC)c(N3CCOCC3)cc2OCC)cc1	4	4938	.	-10	.	.	.
CCN(Cc1ccccc1)C(=O)C1CCN(Cc2ccc(SC)cc2)CC1	6	4078	10	-18	4.8	12	10
CC(C)=C(NC(=O)c1ccccc1Br)C(=O)NCCc1nc2ccccc2[nH]1	0	4800	1	1	3.0	6	6
COc1ccccc1NC(=O)C(C)NS(=O)(=O)c1ccc(F)cc1 (stereo not given)	-5	4359	-5	0	4.0	.	.
CC1CCN(S(=O)(=O)c2ccc(NC(=O)Cc3ccc(S(=O)(=O)N4CCOCC4)s3)cc2)CC1	8	?	-11	0	-9.6	-3	6
O=C(NCc1ccccc1)C(c1ccco1)N(C(=O)c1ccccn1)c1ccccc1 (stereo not given)	-11	4192	3	-22	2.3	10	2
CCOc1nc(Nc2ccc(OC)cc2OC)nc(OCC)n1	27	4415	4	-11	0.5	5	-5
COc1ccc(Cn2c(CCC(=O)Nc3ccc(C)cc3)nc3cccnc32)cc1	-7	3914	4	-27	5.8	0	-1
CCn1c(CNc2nc(-c3ccccc3)cs2)nnc1SCC(=O)NCc1ccco1	-3	2565	6	-22	-4.8	.	.
CCc1c(C)c2ccc(OCC(=O)NCC3CCC(C(=O)O)CC3)c(C)c2oc1=O (stereo not given)	-4	5336	3	-25	6.1	.	.
CCOC(=O)N1CCN(C(=O)CCS(=O)(=O)c2cc3c(cc2Cl)NC(=O)CO3)CC1	0	5928	-2	-5	1.6	.	.
CC(=O)Nc1ccc(S(=O)(=O)N2CCN(c3ccc([N+](=O)[O-])cc3)CC2)cc1	8	3958	16	-14	3.7	5	-3
c1ccc(-c2nc3c([nH]2)CCc2nonc2-3)cc1	-4	4829	-8	-16	0.9	1	-6
C[C@]12CCC(=O)C=C1CCC1C2CC[C@@]2(C)C1CC[C@@]2(O)CC#N (stereo not given in full)	.	8631	5	-13	4.4	1	5
O=C1CCc2nc3ccccc3c(=O)n2N1	-3	5059	0	-9	0.9	.	.
S=C(c1cccs1)N1CCCC1	-2	4269	-1	-11	3.4	18	19
COc1ccc(-c2sc3ccc(OC)cc3c2-c2ccc(OCCN3CCOCC3)cc2)cc1	.	2923	38	-10	-1.3	4	6
C#CCn1c(=NC(=O)c2cc(-c3cccs3)nc3ccccc23)sc2cc(S(N)(=O)=O)ccc21	6	2115	3	-23	7.4	0	4
O=C(Nc1ccc(Br)cn1)c1ccc(Cl)s1	1	5691	10	-147	2.2	-4	4
COc1ccc(-n2ncc3c2CC(C)(C)CC3NC(=O)CCCN2CCCC2=O)cc1 (stereo not given)	-4	5503	9	-7	3.8	5	-2
CSc1cc(C)c(OCC(=O)Nc2c(C)nn(C)c2C)c(C)c1	7	5886	1	-7	13	5	7
CCOc1ccccc1/C=C(\C#N)C(=O)NC1CC1	-8	.	-5	.	-0.4	-7	-1
CCNC(=O)NC(=O)CN(C)c1ccccc1	9	5815	4	-35	2.4	3	-4

Screening data as filed in PubChem.
